Sa growth 42C: S. aureus growth inhibition; S. aureus RN4220 growth, OD600, 20 h, 42 °C; hits give low values; relative growth, % (concentration not given with the values); hit rate 0.53% among 170,000;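 active = growth at 42 °C up to 50% and 20 or more points under that at 30 °C, or under 10% at both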;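 also: 300 nL library stock went into each well; scaled to the means of positive and negative controls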
HCMV UL50-53 inh: inhibitors of HCMV UL50-UL53 nuclear egress complex interaction | HTRF UL50-UL53 interaction, normalized percent inhibition | inhibition, % (concentration not given with the values) | hit rate 0.15% among 190,000 | AID 1918969;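 active = both replicates at 50% or more, plus weaker picks with an unusually low signal ratio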;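 also: stock transfer was 100 nL into about 20 µL; 0% = negative control wells and 100% = wells with untagged competitor protein; inactives centre near -12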
GIV-Gai inh: inhibitors of GIV GBA-motif binding to rat Galpha-i3 | Galpha-i3/FITC-GIV peptide fluorescence polarization, 90 min; hits give low values; scaled: aluminum fluoride 0%, vehicle 100% | percent of control (FP), % (no concentration beside the values) | hit rate 0.42% among 210,000;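 active = replicate mean at 85% of control or lower, very high polarization wells dropped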;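 also: wells of about 15 µL received 100 nL stock; the first replicate is given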
Target sequence (P08753 whole entry, looked up): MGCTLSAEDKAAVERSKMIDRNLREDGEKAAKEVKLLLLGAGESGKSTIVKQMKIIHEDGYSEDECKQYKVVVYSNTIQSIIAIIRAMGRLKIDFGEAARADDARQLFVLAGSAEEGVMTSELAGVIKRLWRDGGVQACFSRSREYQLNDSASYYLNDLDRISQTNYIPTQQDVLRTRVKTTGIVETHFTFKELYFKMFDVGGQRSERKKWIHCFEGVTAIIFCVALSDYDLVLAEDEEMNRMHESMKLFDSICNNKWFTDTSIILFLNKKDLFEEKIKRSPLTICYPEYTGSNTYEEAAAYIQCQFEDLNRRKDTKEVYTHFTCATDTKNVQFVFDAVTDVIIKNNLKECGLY
Sa growth 42C second temp: second read-out of Sa growth 42C, no call of its own (marks repeat the call); relative growth, %; measured here: growth at 30 °C;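 optical density after 20 h as mean of two plates; 100% = untreated growth and lower means inhibition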
Numbers without * were called inactive; / = no result given; & = joins results of further samples.

Every second line gives: Sa growth 42C | Sa growth 42C second temp | HCMV UL50-53 inh | GIV-Gai inh
1: Cc1cc(C)cc(N2C(=O)N(Cc3cccc(Cl)c3)C3CS(=O)(=O)CC32)c1 (stereo unspecified)
  / | / | 16 | 98
2: Cc1cc2[nH]c(=O)[nH]c2cc1NS(=O)(=O)c1ccc(F)cc1
  / | / | -18 | 101
3: CN1CCc2c1nc1ccccc1c2N=C1CCCN1c1ccccc1
  116 | 108 | -2 | 101
4: CC1(C)CC2CC(C)(CN2/C=C2/CCCCC2=O)C1 (stereo unspecified)
  113 | 96 | -7 | /
5: O=C(CCn1c(=O)oc2ccccc21)Nc1ccc(Cl)cc1
  107 | 81 | -20 | 98
6: COc1ccccc1-c1noc(-c2cnn3c(C)c(Cc4ccccc4C)c(C)nc23)n1
  / | / | -4 | 186
7: CCOC(=O)c1cnc(SCC(=O)N(C)c2ccccc2)nc1N
  89 | 88 | / | 105
8: COC(=O)c1ccc(CN(C(C)=O)C(=O)Nc2ccc(C(=O)OC)cc2C)cc1
  103 | 88 | -9 | 104
9: COc1ccc(CNC(=O)Cn2c(=O)nc(-c3ccccc3)c3ccccc32)cc1OC
  81 | 88 | / | 102
10: COCCN1C(=O)c2oc3ccccc3c(=O)c2C1c1cccc(O)c1 (stereo unspecified)
  102 | 80 | 2&-31 | 104
11: Cc1nc2nc(SCC(=O)O)nn2c(C)c1Cc1c(F)cccc1Cl
  121 | 86 | / | 98
12: CN(C(=O)CSc1nncc(=O)[nH]1)c1ccccc1
  86 | 87 | -26 | 99
13: CC(C)n1nccc1NS(=O)(=O)c1ccccc1
  92 | 99 | 1 | /
14: CC(=O)N1C(=O)C(=C2C=C(C)OC(C)=C2)c2ccccc21
  97 | 93 | -12 | 123
15: CCC12CN3CC(C)(CN(C1)C3c1c[nH]c3ccc(OC)cc13)C2=O (stereo unspecified)
  83 | 86 | -12 | 99
16: CN(C)S(=O)(=O)c1ccc(N2CCC(CNC(=O)Nc3ccccc3)CC2)cc1
  84 | 96 | 7 | 105
17: Cc1cc(C(=O)NCCCc2ccccc2)c2ccccc2n1
  / | / | -28 | 101
18: c1snnc1C12CC3CC(CC(C3)C1)C2
  103 | 109 | -16 | 98
19: CCCNC(=O)Nc1ccc(C(F)(F)F)cc1
  77 | 77 | 15 | 104
20: S=c1[nH]nc(NCCc2ccccc2)s1
  89 | 32 | 5 | 101
21: COc1ccc(S(=O)(=O)c2c(Nc3c(C)cccc3C)sc(C(=O)c3ccc4c(c3)OCO4)c2N)cc1
  120 | 108 | / | 107
22: CSc1nc2ncc(C(=O)c3ccccc3O)cc2c(=O)[nH]1
  66 | 87 | -27 | /
23: CN(c1ccccc1)S(=O)(=O)c1ccc(C(=O)Nc2nc3ccc([N+](=O)[O-])cc3s2)cc1
  / | / | -2 | 104
24: Cc1ccc(Cl)cc1NC(=O)C1CCN(S(=O)(=O)c2cc3c(cc2C)NC(=O)CO3)CC1
  / | / | 13 | 100
25: O=P(CCNCc1cccnc1)(c1ccccc1)c1ccccc1
  81 | 85 | / | 104
26: CSc1ncc(C(=O)Nc2cc(Cl)ccc2C)c(-c2ccccc2)n1
  96 | 95 | / | 97
27: Cc1occc1-c1nnc(SCc2nnc(-c3ccc(F)cc3)o2)n1C
  98 | 87 | -17 | /
28: CCc1nn(CC(=O)N2CCN(c3cccc(Cl)c3)CC2)c(=O)c2cc3sccc3n12
  99 | 91 | 5 | 99
29: CCc1ccccc1NC(=O)CN1CCC(NC(=O)NC2CCCCC2)CC1
  99 | 81 | 1 | 104
30: COc1ccc(C2Oc3ccc(Br)cc3C3CC(c4ccc(C)cc4)=NN32)cc1OC (stereo unspecified)
  / | / | 8 | 109

5 entries out of the list above, arranged by their value in Sa growth 42C second temp, lowest first.
nr | canonical_smiles | Sa growth 42C second temp
27 | Cc1occc1-c1nnc(SCc2nnc(-c3ccc(F)cc3)o2)n1C | 87
9 | COc1ccc(CNC(=O)Cn2c(=O)nc(-c3ccccc3)c3ccccc32)cc1OC | 88
28 | CCc1nn(CC(=O)N2CCN(c3cccc(Cl)c3)CC2)c(=O)c2cc3sccc3n12 | 91
13 | CC(C)n1nccc1NS(=O)(=O)c1ccccc1 | 99
18 | c1snnc1C12CC3CC(CC(C3)C1)C2 | 109

(continued)
Every second line gives: Sa growth 42C | Sa growth 42C second temp | HCMV UL50-53 inh | GIV-Gai inh
31: Cc1c(-c2nnc(C(=O)NCCN3CCc4ccccc4C3)o2)oc2ccccc12
  / | / | -16 | 104
32: CCc1ccc(NC(=O)C2CCCN(S(=O)(=O)c3ccc4[nH]c(=O)ccc4c3)C2)cc1 (stereo unspecified)
  115 | 90 | / | 102
33: CCN(CC)S(=O)(=O)c1cccc(-c2nnc(SC(C)C)n2-c2ccccc2)c1
  99 | 95 | -16 | /
34: CCCn1c(=C(C#N)C#N)s/c(=C2\C=Cc3ccccc3N2CC)c1=O
  91 | 111 | 5 | 103
35: Cc1ccc(NC(=O)c2c(Cl)nc3sccn23)c(S(=O)(=O)N2CCCCC2)c1
  106 | 95 | 9 | /
36: CCN(CC)c1nc(-c2ccc(OC)c(OC)c2)cc(C(F)(F)F)n1
  70 | 71 | -23 | 110
37: CO/N=C1\C(C)=C(C#N)C2C1C2(C)C (stereo unspecified)
  83 | 82 | -14 | 102
38: O=C(NCc1ccc(Cl)cc1)C(=O)NCC(c1cccnc1)N1CCN(c2ccccc2)CC1 (stereo unspecified)
  95 | 89 | -11 | 104
39: COc1ccc(-c2cn(-c3ccc(C)cc3)c(S(=O)(=O)CC(=O)Nc3ccc(F)cc3)n2)cc1
  101 | 88 | 10 | 102
40: Cc1[nH]ccc(=O)c1OCC(N)=O
  98 | 104 | 11 | 100
41: O=C(Nc1ccc(F)c(Cl)c1)C1CCCN(c2ncnc3onc(-c4ccc(F)cc4)c23)C1 (stereo unspecified)
  112 | 91 | / | 108
42: CCc1cccc(C)c1NC(=O)c1cc(S(=O)(=O)N(C)Cc2ccccc2)ccc1F
  126 | 97 | / | 107
43: CCOC(=O)c1oc2ccc(CC/C(C)=N/NC(=O)c3ccc(OC)c(OC)c3)cc2c1C
  95 | 92 | -15 | /
44: CC1CCN(S(=O)(=O)c2ccc3c(c2)N(CC(=O)NC(C)C)C(=O)CC(C)S3)CC1 (stereo unspecified)
  / | / | -11 | 107
45: Cc1onc(-c2ccccc2)c1C(=O)N1CCCc2ccccc21
  108 | 81 | -194 | 97
46: CN(C)S(=O)(=O)c1ccc2c(c1)N(CC(=O)Nc1ccccc1Cl)C(=O)C1CCCCN21 (stereo unspecified)
  / | / | -14 | 107
47: COc1ccc(-c2csc(C3=C(O)CN(C(C)C)C3=N)n2)cc1OC
  72 | 95 | -49 | /
48: O=C(NCCC1=CCCCC1)C1CCN(c2ccc3nncn3n2)CC1
  / | / | -17 | 102
49: O=C1CC2CS(=O)(=O)CC2N1c1ccccc1 (stereo unspecified)
  107 | 85 | -10 | 94
50: CCOc1ccc(NC(=O)CSc2nc3ccccc3c(=O)n2Cc2ccccc2OC)cc1
  110 | 88 | 2 | 102
51: CCCc1cc(NC(C)c2ccccc2)n2c(nc3ccccc32)c1C#N (stereo unspecified)
  106 | 87 | / | 97
52: COCCNC(=O)c1ccccc1-c1ccccc1C(=O)O
  92 | 96 | 8 | 100
53: COc1ccc(/C=C2/SC(=O)N(CCC(=O)Nc3cccc(C)c3)C2=O)cc1OC
  / | / | -24 | 105
54: Cn1nnn(-c2ccccc2)c1=O
  104 | 88 | -5 | 99
55: COc1ccc(-n2c(=O)c3sc4ccccc4c3n(CC(=O)NC3CCCCC3)c2=O)cc1
  107 | 86 | -31 | 105
56: O=C(/C=C/c1ccco1)OCC(=O)c1ccc(F)cc1
  87 | 90 | -8 | /
57: COc1ccc(CC(=O)NCc2csc(C)n2)cc1
  / | / | -18 | 99
58: CC(C)N(Cc1c(O)ccc2c(=O)c(-c3ccccc3)coc12)C(C)C
  81 | 74 | -19 | 101
59: CCCc1[nH]n(-c2nc3ccccc3s2)c(=O)c1C(C)=NCCO
  / | / | -6 | 106
60: Cc1ccsc1CN(C)C(=O)c1cc(S(C)(=O)=O)ccc1Cl
  84 | 84 | -17 | /

Laid out differently: results already given.
#37 CO/N=C1\C(C)=C(C#N)C2C1C2(C)C (stereo unspecified)
#38 O=C(NCc1ccc(Cl)cc1)C(=O)NCC(c1cccnc1)N1CCN(c2ccccc2)CC1 (stereo unspecified)
#39 COc1ccc(-c2cn(-c3ccc(C)cc3)c(S(=O)(=O)CC(=O)Nc3ccc(F)cc3)n2)cc1
#40 Cc1[nH]ccc(=O)c1OCC(N)=O
Assay by compound | 37 | 38 | 39 | 40
Sa growth 42C | 83 | 95 | 101 | 98
Sa growth 42C second temp | 82 | 89 | 88 | 104
HCMV UL50-53 inh | -14 | -11 | 10 | 11
GIV-Gai inh | 102 | 104 | 102 | 100

Carrying on.
Every second line gives: Sa growth 42C | Sa growth 42C second temp | HCMV UL50-53 inh | GIV-Gai inh
61: O=C(COc1ncnc2ccccc12)N(Cc1ccccc1)Cc1ccccc1
  101 | 93 | -24 | /
62: COc1cccc(C(=O)Nc2cccc(-c3nc4ncccn4c3C)c2)c1
  76 | 92 | / | 110
63: CCN(C(=O)CSc1ncc(-c2ccc(C)cc2)n1C)C1=CCCC1
  99 | 82 | -16 | /
64: COc1ccc(OC)c(NC(=O)CCCc2nnc3n(C(C)C)c(=O)c4sccc4n23)c1
  101 | 84 | / | 111
65: O=C(NCc1cccnc1)c1ccc2nc(-c3ccco3)c(-c3ccco3)nc2c1
  111 | 64 | / | 98
66: Cc1ccc(-n2c(C)cc(=O)cc2C)cc1
  93 | 92 | -23 | 101
67: COCCNC(=O)Cc1ccc(-n2c(=O)c3ccccc3n(CC(=O)NCCc3ccccc3)c2=O)cc1
  / | / | 11 | 99
68: COc1cccc([C@H]2Nc3ccc(S(=O)(=O)Nc4cc(C)ccc4C)cc3[C@H]3C=CC[C@H]32)c1
  103 | 81 | -28 | 118
69: Cc1ccc2nc(-c3ccc(C)o3)c(NC3CCCCC3)n2c1
  86 | 60 | 4 | 102
70: COC(=O)c1c(SC)nc2ccccc2c1OCc1cc(C)ccc1C
  112 | 91 | / | 101
71: O=C(NCCSc1ccc(Cl)cc1)Nc1ccccc1
  117 | 84 | / | 100
72: Cc1ccc(-c2nc3n(n2)C(=O)CC(c2ccc(C)cc2)S3)cc1 (stereo unspecified)
  105 | 91 | -15 | 100
73: CCCCn1c(SCC)nc2sc3c(c2c1=O)CCCC3
  93 | 81 | / | 99
74: CN(/C=C1\CCCCC1=O)C1CCCCC1
  96 | 92 | -40 | /
75: COc1ccc(/C=C2\Oc3cc(OC(=O)c4ccc(F)cc4)ccc3C2=O)cc1
  99 | 88 | / | 102
76: CCOC(=O)c1cccc(NS(=O)(=O)c2cc(-c3cnc(C4CC4)o3)ccc2C)c1
  149 | 86 | / | 100
77: O=C(Nc1ccccc1)C(c1ccccc1)c1ccccc1
  114 | 103 | -5 | /
78: O=C(NCc1ccc2c(c1)OCO2)c1cc(-c2cccnc2)nc2ccc(Br)cc12
  / | / | -16 | 103
79: Cc1cccc(C(=O)OCc2cc(=O)n3nc(C4CC4)sc3n2)c1
  101 | 88 | / | 98
80: CCS(=O)(=O)c1ccc2oc(NCCc3ccc(F)cc3)nc2c1
  96 | 86 | -29 | /
81: CC(=O)NC1C(OCCOc2ccc(Cl)cc2C)OC(CO)C(O)C1O (stereo unspecified)
  109 | 83 | / | 104
82: CSc1nc2ccccc2n1C(=O)CCN1C(=O)/C(=C/c2cccs2)SC1=S
  125 | 87 | -7 | 103
83: N#C/C(=C\c1ccc(C(F)(F)F)cc1)c1cn(C(=O)C2CCC2)c2ccccc12
  110 | 100 | -5 | 110
84: COc1cccc(C(=O)c2cn(CC(=O)Nc3cccc(C)c3C)c3nc(C)ccc3c2=O)c1
  84 | 72 | / | 112
85: C#CCn1c(Cc2ccccc2)nc2ccccc21
  101 | 81 | 4 | 110
86: Clc1ccc2[nH]c(-c3ccccc3)cc2c1
  / | / | -19 | 100
87: Cc1cc(Nc2ccccc2)n(C(=O)c2ccc(N)cc2)n1
  85 | 59 | -26 | 100
88: CN(C)S(=O)(=O)c1ccc(-c2ccccn2)s1
  100 | 87 | -22 | 103
89: CCCc1ccc(C(=O)O)s1
  96 | 100 | -26 | 106
90: CCCCc1nnc(NC(=O)Cn2cnc3ccccc3c2=O)s1
  111 | 105 | 0 | 109

Following part.
Every second line gives: Sa growth 42C | Sa growth 42C second temp | HCMV UL50-53 inh | GIV-Gai inh
91: CNC(=O)CCC(=O)N1CC2CCCN2c2ccccc21 (stereo unspecified)
  91 | 104 | -1 | 117
92: CCN(c1ccccc1)C1(O)C(=O)c2ccccc2C1=O
  101 | 86 | / | 96
93: CC1=N/C(=C2/C=C(c3ccc4c(c3)OCO4)Oc3ccccc32)C(=O)O1
  97 | 99 | -20 | 103
94: CCN(CC)C(=O)CSc1nc2c(cc1C#N)CCC2
  87 | 79 | -14 | 93
95: Cn1cnnc1SCC(=O)Nc1ccc2nc(SCc3ccccc3F)sc2c1
  / | / | -22 | 102
96: CCC1Cn2c(C(=O)NCCC3=CCCCC3)cc3cccc(c32)O1 (stereo unspecified)
  / | / | 6 | 107
97: O=C(COC(=O)C1CCCCC1)c1cccc2ccccc12
  102 | 90 | -33 | /
98: O=C1CCC(c2ccccc2)C(=O)C1C(=O)c1ccc(Cl)cc1Cl (stereo unspecified)
  112 | 84 | -5 | 99
99: CCOC(=O)c1c(C)n(-c2ccc(C)cc2)c2ccc(OCC(O)CNCC3CCCO3)cc12 (stereo unspecified)
  128 | 53 | / | 99
100: COc1cccc(OCc2nc3ccccc3n2CCOc2ccccc2)c1
  84 | 70 | -17 | 102
